B2AR ag: agonists of human beta-2 adrenergic receptor inducing internalization; 0.43% of 340,000 active; AID 504454; response, % (concentration not given with the values); Am2.2-beta2AR cells, FAP receptor internalization, flow cytometry; reference of the scale not given here; P07550;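 active = response above a set limit, near 3 SD of response in nonfluorescent compounds, cut at about 42% in these data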;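 note: stock transfer was 100 nL into about 11 µL; a reference agonist was the positive control; negative values mostly stem from fluorescent compounds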
Target sequence (P07550 whole entry, looked up): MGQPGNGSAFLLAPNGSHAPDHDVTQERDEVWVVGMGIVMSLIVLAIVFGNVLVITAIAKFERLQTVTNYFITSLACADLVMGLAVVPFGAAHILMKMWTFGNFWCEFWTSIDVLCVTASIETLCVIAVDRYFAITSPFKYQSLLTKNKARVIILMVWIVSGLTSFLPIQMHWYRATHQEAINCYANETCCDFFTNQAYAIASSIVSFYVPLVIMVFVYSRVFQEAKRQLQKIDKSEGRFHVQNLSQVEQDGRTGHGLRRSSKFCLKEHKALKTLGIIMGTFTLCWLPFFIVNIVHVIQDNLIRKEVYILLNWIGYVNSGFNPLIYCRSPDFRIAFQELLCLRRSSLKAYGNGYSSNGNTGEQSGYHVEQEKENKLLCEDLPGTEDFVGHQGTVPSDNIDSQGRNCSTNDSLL
Beta cell apopt: blocks beta cell apoptosis. protection from apoptosis, % (test concentration not listed). AID 435005. INS-1E cytokine-induced death, ATP luminescence, 48 h; percent of positive-control rescue, neutral wells zero. 0.8% of 300,000 active;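 active = all replicates at 75% or more, or half of them and the mean; inconclusive = half reach 75% but not the mean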;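 note: 0% = cytokine-treated negative control wells and 100% = positive control rescue; higher means more ATP so stronger rescue from cytokine killing; wells of about 40 µL received 100 nL stock; the first replicate is given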
UCH37 inh: inhibitors of human deubiquitinating enzyme UCH37. Q9Y5K5. purified proteasome/UCH37, Ub-AMC cleavage fluorescence. inhibition, % (no concentration beside the values). 0.33% of 330,000 active. AID 588478;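 active = mean of two replicates above 20%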;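 note: 0% = compound-free wells with enzyme and 100% = wells lacking proteasome; stock transfer was 100 nL into about 20 µL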
Target sequence (Q9Y5K5 whole entry, looked up): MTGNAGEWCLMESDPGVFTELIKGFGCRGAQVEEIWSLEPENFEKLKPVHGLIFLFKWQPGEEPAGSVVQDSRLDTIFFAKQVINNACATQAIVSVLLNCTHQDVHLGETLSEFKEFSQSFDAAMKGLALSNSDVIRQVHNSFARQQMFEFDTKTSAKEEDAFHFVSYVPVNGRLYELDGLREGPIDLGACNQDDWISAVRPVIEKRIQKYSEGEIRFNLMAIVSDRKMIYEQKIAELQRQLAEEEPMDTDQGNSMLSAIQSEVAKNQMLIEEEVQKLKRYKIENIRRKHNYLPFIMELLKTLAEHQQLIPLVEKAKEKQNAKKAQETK
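Material: human UCH37 enzyme supplied as purified proteasome complex. Measure: % inhibition of Ub-AMC cleavage fluorescence. Medium: pH 7.4 Tris-HCl (50 mM) with ovalbumin, ATP-MgCl2, DTT. Times: 30 min preincubation with enzyme, 25 min cleavage at room temperature. Detection: AMC fluorescence intensity at 355/460 nm.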
RanGTP-Imp inh: inhibitors of RanGTP-importin-beta interaction, primary screen, biochemical, FRET, CFP-Ran, YFP-importin-beta, homogeneous | inhibition, % (no concentration beside the values) | 1.1% of 300,000 active | cell-free CFP-Ran/YFP-importin-beta FRET ratio;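 active = most replicates above 15%; inconclusive = exactly half above 15%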;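 note: 0% = DMSO wells and 100% = Ran loaded with GDP instead of GTP; wells of about 40 µL received 100 nL stock; the first replicate is given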
T cruzi inh: T. cruzi replication inhibition | T. cruzi beta-gal in NIH3T3, luminescence, 90 h | inhibition, % (test concentration not listed) | 1.4% of 300,000 active;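 active = mean inhibition across valid replicates above about 55%, limit read from the data; inconclusive = mean below that limit but half or more replicates reach it; inactive = mean below it, under half of replicates reach it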;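 note: signal also drops with host cell toxicity which is not excluded here; 0% = plate median of DMSO wells and 100% = zero luminescence signal; higher percent means less beta-gal luminescence so fewer parasites; stock transfer was 50 nL into about 50 µL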
LANA-H2A inh: blocks KSHV LANA binding to histone H2A/H2B; inhibition, % (no concentration beside the values); 0.6% of 320,000 active; cell-free LANA-H2A/H2B peptide, fluorescence polarization; AID 2629; Q9QR71; in the data active = inhibition mostly above about 10%, no sharp cut-off; inactive = mostly below about 6.7%;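 note: stock transfer was 7.5 nL into about 10 µL; 0% = median of vehicle wells and 100% = median of positive control wells; one replicate is shown; the record names a cut of 25% in any replicate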
A1 inh: inhibitors of the anti-apoptotic protein A1, read as caspase activation; MEF A1-2A-BIM cells, Caspase-Glo 3/7 luminescence, 3 h; percent of clofoctol response, vehicle zero; caspase activation, % (test concentration not listed); AID 2462; 0.066% of 330,000 active;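 active = over half of replicate activation scores above 10%, or exactly half above 10 with the replicate mean above 10; inconclusive = replicate mean below 10 yet half the replicates above 10; inactive = over half of replicates below 10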;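 note: wells of about 30 µL received 50 nL stock; many hits fall short of the cut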
Calb FLC: affects C. albicans growth with fluconazole | growth inhibition, % (no concentration beside the values) | AID 1979 | 0.57% of 300,000 active | C. albicans CaCi-2 (fluconazole-resistant clinical isolate) + fluconazole, Alamar Blue growth, 48 h;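 active = most replicates above 75%; inconclusive = exactly half above 75%; inactive = most below 75%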;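 note: all wells also contain fluconazole at 8 µg/ml as a sub-toxic cotreatment; 0% = median of DMSO wells and 100% = median of geldanamycin control wells; wells of about 8 µL received 7.5 nL stock; the first replicate is given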
* = called active by the depositor; ? = inconclusive; nt = not tested or not shown. Rows were taken by chance; 4.3% or so of the library scored in one or more.

Values run as follows: B2AR ag | Beta cell apopt | UCH37 inh | RanGTP-Imp inh | T cruzi inh | LANA-H2A inh | A1 inh | Calb FLC
#1 COC(=O)C1CCN(CC(=O)NC(=O)Nc2ccccc2F)CC1
 : -4.5 | -1.3 | 2.1 | nt | nt | -4.5 | 0.7 | nt
#2 COc1ccc(-c2nc(-c3cccnc3)no2)cc1OC
 : -5.4 | 1.9 | 3.1 | -1.2 | -14.0 | 4.9 | -2.9 | 3.4
#3 CC(C)OCCCNC(=O)CNC(=O)c1cccs1
 : 3.3 | nt | 0.5 | 2.2 | -21.9 | -1.2 | 0.6 | -9.7
#4 COC(=O)c1ccccc1NC(=O)CNc1cc(Cl)ccc1N1CCOCC1
 : 0.7 | 7.6 | -1.1 | 1.1 | 22.4 | -0.6 | -1.7 | 1.0
#5 CCc1nnc(NC(=O)CSc2nnc(-c3cccnc3)n2CC)s1
 : -2.0 | nt | 1.8 | ? | -5.3 | -3.3 | 1.1 | -4.2
#6 O=C(COC(=O)c1ccc([N+](=O)[O-])s1)NCc1ccccc1
 : 10.4 | -3.1 | 38.9* | -4.2 | 18.4 | 0.0 | -0.4 | -1.4
#7 Cc1nn(S(=O)(=O)c2ccc(Cl)cc2)c(C)c1S(=O)(=O)N1CCOCC1
 : 4.9 | -7.0 | 0.8 | 2.1 | -0.5 | -1.1 | -0.5 | -1.0
#8 O=C(NCC1COc2ccccc2O1)c1ccco1 (stereo not given)
 : -7.5 | -0.3 | 3.9 | 3.9 | -5.1 | 2.3 | 1.4 | -6.5
#9 CC(=O)Nc1ccc(S(=O)(=O)NCC(=O)OC(C)c2ccccc2Cl)cc1 (stereo not given)
 : 0.1 | 5.9 | 2.8 | 1.5 | 3.3 | 1.4 | -1.2 | -38.9
#10 COC(=O)c1ccc(C(=O)NC2CCCN(Cc3ccc(Cl)cc3)C2)nc1 (stereo not given)
 : 8.7 | 0.2 | 2.6 | 1.4 | 40.2 | -0.2 | 0.2 | 0.3
#11 CCOC(=O)Cn1nnnc1CN(Cc1ccccc1)Cc1cc2cc(CC)ccc2[nH]c1=O
 : 100.2* | -11.2 | 4.5 | 0.4 | 6.4 | -1.7 | -0.3 | ?
#12 Clc1ccc(Cc2nnc(-c3cccs3)o2)cc1
 : -17.5 | -5.2 | -1.2 | 1.2 | -9.5 | -1.7 | 0.9 | -18.2
#13 C[C@@H]1CN([C@@H](C)CO)C(=O)Cc2cc(NC(=O)Nc3cccc4ccccc34)ccc2O[C@@H]1CN(C)Cc1ccc(C(F)(F)F)cc1
 : 7.1 | 19.4 | 0.8 | nt | nt | 7.1 | -0.5 | nt
#14 C[C@H](NC(=O)[C@H]1N2C(=O)c3ccccc3C2SC1(C)C)C(=O)NCc1ccncc1 (stereo not given in full)
 : -2.8 | -1.9 | 1.5 | 1.9 | -14.8 | -2.8 | 0.3 | nt
#15 CCOC(=O)c1[nH]c(COC(=O)c2ccccc2NC(=O)c2ccco2)c(C(=O)OCC)c1C
 : -1.1 | 5.8 | -13.5 | -0.1 | 21.5 | -0.3 | -0.4 | -27.9
#16 Cc1ccc(C)c(OCc2cc(C(=O)NC3CCOC(C)(C)C3)no2)c1 (stereo not given)
 : -1.4 | -2.2 | 1.4 | -0.5 | -9.0 | 0.2 | -2.1 | 9.9
#17 Cc1nn(C(C)C(=O)Nc2ccccc2Cl)c(=O)c2nn(-c3ccccc3)c(C)c12 (stereo not given)
 : -4.1 | 1.7 | 1.0 | 6.2 | 15.9 | -3.7 | -0.1 | -1.6
#18 Cc1nc(-c2ccccn2)sc1C(=O)Nc1ccc(F)cc1F
 : -2.5 | -12.1 | -10.6 | 0.2 | -5.4 | -0.4 | -0.5 | 10.7
#19 O=C(Nc1nnc(SCc2cccnc2)s1)C1CC(=O)N(c2ccccc2)C1 (stereo not given)
 : -1.9 | -5.7 | 1.8 | 0.4 | -7.7 | 0.8 | 1.4 | 2.8
#20 CCCCCC(=O)Nc1ccc(N2CCN(C(=O)CCC)CC2)cc1
 : 0.3 | 2.0 | 4.9 | -0.3 | -0.4 | 2.4 | -0.4 | -2.9
#21 CCOC(=O)C(=Cc1ccc(F)cc1)C(=O)OCC
 : nt | -16.0 | nt | 11.1 | -34.2 | 0.0 | 0.7 | -25.5
#22 C=CCn1cc(C(=O)OC)c(=O)c2cc(S(=O)(=O)N(CC)CC)ccc21
 : 8.6 | 0.2 | 0.9 | -4.2 | -5.9 | -0.7 | -0.9 | -11.9
#23 COc1ccccc1CNC(=O)CCCn1nc(C)c2c(C)n(-c3ccccc3)nc2c1=O
 : -3.7 | -2.4 | -1.5 | 2.2 | -6.1 | 0.1 | 0.6 | -39.5
#24 Cc1ccc2[nH]c(=O)c(CN(Cc3ccccc3Cl)C(=O)N3CCOCC3)cc2c1
 : -16.0 | -2.9 | -4.3 | 2.2 | -0.2 | 2.4 | 0.9 | -9.6
#25 CCn1c(-c2ccccc2)ccc(C#N)c1=O
 : -1.4 | 3.9 | 4.5 | ? | 2.9 | 0.4 | -1.3 | 5.7
#26 COc1cc(C(=O)NNC(=O)c2cccn2C)cc(OC)c1OC
 : -3.7 | -1.3 | 3.2 | 0.2 | -9.4 | 1.7 | -0.3 | 7.6
#27 O=C(CN1CCc2ccccc2C1)Nc1ccc(F)cc1F
 : 0.1 | -9.5 | 4.0 | -1.6 | 5.6 | 1.6 | 0.0 | -4.4
#28 COc1ccc(CCNCC(O)COc2cccc(Br)c2)cc1 (stereo not given)
 : -1.4 | 1.4 | 3.0 | 0.5 | 44.8 | 1.8 | -0.5 | 9.2
#29 Cc1noc(C)c1CN1C(=O)NC2(CCc3ccccc3C2)C1=O (stereo not given)
 : 0.2 | 4.4 | 3.9 | -1.4 | -6.6 | 5.5 | 0.4 | 0.3
#30 CCC(C)[C@H]1CNCCN1CCc1cccc(F)c1 (stereo not given in full)
 : -2.8 | 0.1 | 0.5 | 0.3 | -9.9 | -1.9 | 0.2 | -1.2
#31 O=c1[nH][nH]c2cc(=O)n(-c3ccc(Cl)cc3)nc12
 : 1.2 | 0.0 | nt | -2.4 | 0.5 | 3.3 | 0.8 | -4.3
#32 Cc1ccccc1C(=O)Nc1ccccc1NC(=O)c1ccccc1C
 : 11.6 | 3.4 | 1.8 | 0.0 | -4.4 | -1.5 | -0.7 | -3.5
#33 COC(=O)C1=C(C(=O)OC)[C@@H]2N(C)c3ccccc3[C@@]23C[C@@H](CO)N(C(=O)NCCBr)C3=N1
 : -5.6 | -5.1 | 0.0 | 5.5 | 23.3 | 5.1 | 2.2 | 1.8
#34 O=C(NCc1ccc(N2CCCC2=O)cc1)Nc1ccccc1
 : 10.8 | -1.1 | 2.0 | 2.1 | -7.9 | -1.7 | -0.1 | 3.4
#35 Cc1noc(NS(=O)(=O)c2ccc(NC(=O)CCCOc3ccc(Cl)cc3Cl)cc2)c1C
 : -1.2 | -5.4 | -1.6 | -2.7 | 4.7 | -3.1 | -1.2 | -3.5
#36 O=C1C=C(c2ccc(-c3ccccc3)cc2)C[C@@H](c2ccc(Cl)cc2)C1
 : 5.0 | -8.1 | -3.6 | nt | nt | 4.0 | -0.5 | nt
#37 Cc1ccc(N2CCN(CCCCN3C(=O)C4CCCN4C3=O)CC2)cc1 (stereo not given)
 : -7.7 | -3.3 | 3.3 | -10.2 | -1.8 | 2.8 | 0.7 | -10.5
#38 COCc1cc(=O)[nH]c(=S)[nH]1
 : 3.9 | -4.1 | 2.6 | 1.0 | -11.4 | -1.2 | -0.1 | -3.4
#39 Oc1oc(-c2ccccc2)nc1C=NCc1ccncc1
 : -3.4 | -4.1 | 15.8 | 2.1 | -7.4 | 0.9 | 2.4 | ?
#40 O=C(COC(=O)CCC(=O)c1ccc(F)cc1)Nc1ccc2[nH]c(=O)[nH]c2c1
 : -0.6 | -11.1 | nt | 0.5 | -11.1 | 0.5 | -0.6 | -5.4
#41 O=C(C1CCCN(S(=O)(=O)c2cccc3nonc23)C1)N1CCN(c2ccccc2)CC1 (stereo not given)
 : -2.8 | 3.6 | 2.2 | 0.5 | 19.6 | -5.0 | -0.2 | 6.1
#42 COc1ccc2c(c1)CCc1cn3nc(C)cc3nc1-2
 : 1.7 | -5.9 | -35.9 | -0.7 | 12.4 | -2.7 | -1.0 | 15.8
#43 CN1CCN(C(CNC(=O)C(=O)NC2CCCCC2)c2ccc(F)cc2)CC1 (stereo not given)
 : 1.8 | -4.6 | 4.3 | 1.7 | 19.7 | -5.3 | 0.2 | -3.7
#44 O=C(CSCc1ccccc1)N1CCc2ccccc21
 : -5.5 | -2.7 | 4.9 | -4.3 | -16.2 | -4.4 | -0.2 | -4.4
#45 Nc1nc(Nc2cccc(F)c2)nc(NCc2ccco2)c1[N+](=O)[O-]
 : 26.9 | -3.2 | 5.4 | -2.7 | 24.9 | -0.4 | -0.5 | -6.3
#46 Cc1ccc(CNC(=O)CCS(=O)(=O)c2cc(Br)cc3c2N(C(=O)C2CC2)CC3)o1
 : 18.8 | 8.2 | 5.7 | 0.4 | -2.9 | 0.6 | -1.3 | 6.0
#47 Cc1nc(-c2ccccc2)cs1
 : 2.4 | 1.7 | 5.0 | -0.5 | -18.7 | -4.3 | -0.1 | -2.7
#48 CCOc1ccccc1-n1c(SCC(=O)NC(C)(C)C)nnc1-c1ccoc1C
 : 5.3 | -1.4 | 4.8 | -1.7 | -3.2 | 3.5 | 0.8 | 1.7
#49 O=C(Nc1cccc(O)c1)C1CC(c2cccc(Br)c2)=NO1 (stereo not given)
 : 2.6 | nt | 2.6 | -0.4 | -6.1 | -6.5 | -0.2 | -32.1
#50 O=C(COC(=O)c1cccs1)Nc1ccccc1[N+](=O)[O-]
 : 3.5 | 0.6 | 2.5 | -1.9 | 1.5 | -1.5 | 0.0 | -13.2
#51 CCc1cc(C(=O)NNC(=O)CCl)sc1C
 : -5.7 | -9.8 | 5.5 | -1.8 | -13.6 | 1.7 | 0.0 | -19.0
#52 CCCOC(=O)CSc1nc(N2CCOCC2)c2c(c1C#N)CC(C)(C)OC2
 : 7.8 | 2.9 | 0.0 | ? | -6.5 | 4.1 | -1.2 | 3.9
#53 CCn1cc(/C=N\NC(=O)C2(C)CC2(Cl)Cl)c(C)n1 (stereo not given)
 : -2.4 | 2.6 | nt | 0.3 | -34.6 | -3.3 | 0.1 | -3.3
#54 O=c1oc(-c2cccnc2)nc2ccccc12
 : -1.2 | 1.7 | 1.4 | -0.1 | -0.5 | -0.8 | -5.3 | -1.4
#55 CC(=O)C(C(C)=O)C1(O)C(=O)c2ccccc2C1=O
 : 6.4 | -16.3 | 70.1* | -0.7 | -23.2 | -4.4 | -0.1 | -3.2
#56 Cc1cccc(N2CCN(C(=O)CCCSc3nc4ccccc4[nH]3)CC2)c1C
 : -6.0 | -0.1 | 4.2 | -0.2 | 15.5 | 0.9 | -0.4 | 0.0
#57 O=C(N/C(=C/c1ccco1)C(=O)N1CCCCCC1)c1ccccc1
 : 0.8 | -9.3 | 4.0 | -4.5 | -0.8 | -8.0 | -0.2 | -0.8
